Bfl-1 A1 inh: caspase 3/7 activation in MEF A1-2A-BIM cells, primary screen, A1 inhibitor project, cell-based, luminescence, HTS. caspase activation, % (no concentration beside the values). Caspase-Glo 3/7 luminescence, 3 h; percent of clofoctol response, vehicle zero. 330,000 compounds, 0.066% hits;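 active = over half of replicate activation scores above 10%, or exactly half above 10 with the replicate mean above 10; inconclusive = replicate mean below 10 yet half the replicates above 10; inactive = over half of replicates below 10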;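 note: wells of about 30 µL received 50 nL stock; many hits fall short of the cut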
MLL AF4-AF9 inh: inhibitors of AF4 peptide binding to AF9, primary screen, biochemical, AlphaScreen, biotin-AF4 peptide, FLAG-AF9, single point | 350,000 compounds, 0.47% hits | inhibition, % at 10 µM | AID 651704, 2012;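 active = every replicate reaching a set inhibition limit, whatever the replicate mean, cut at about 25% in these data; inconclusive = mean inhibition reaches that limit but some replicates miss it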;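 note: 0% = plate neutral control median and 100% = total signal loss; the record names both 10 and 1 µM as test concentration; the first replicate is given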
Target sequence (P42568 whole entry, looked up): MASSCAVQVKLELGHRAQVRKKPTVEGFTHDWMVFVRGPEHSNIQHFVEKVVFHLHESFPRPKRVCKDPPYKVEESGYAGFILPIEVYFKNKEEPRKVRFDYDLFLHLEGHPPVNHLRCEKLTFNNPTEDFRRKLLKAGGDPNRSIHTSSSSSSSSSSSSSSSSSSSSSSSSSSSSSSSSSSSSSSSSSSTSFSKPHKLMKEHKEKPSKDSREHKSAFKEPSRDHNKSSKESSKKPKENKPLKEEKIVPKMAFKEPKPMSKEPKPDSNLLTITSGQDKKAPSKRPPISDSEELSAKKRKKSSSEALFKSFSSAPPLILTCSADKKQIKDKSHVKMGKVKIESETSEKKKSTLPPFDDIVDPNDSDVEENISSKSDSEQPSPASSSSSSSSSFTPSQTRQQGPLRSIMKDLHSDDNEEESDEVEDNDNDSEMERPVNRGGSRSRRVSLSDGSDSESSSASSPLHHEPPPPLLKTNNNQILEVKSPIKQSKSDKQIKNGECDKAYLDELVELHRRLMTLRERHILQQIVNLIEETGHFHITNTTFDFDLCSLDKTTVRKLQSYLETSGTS
Vif A3G: inhibitors of Vif binding to APOBEC3G peptide, primary screen, biochemical, TR-FRET, GST-Vif 1-94, biotin-A3G peptide, dose response retest (AID 1117319). TR-FRET GST-Vif / biotin-A3G peptide binding; higher % means a stronger effect; test concentration not given here; strong numbers were not always called active. 260,000 compounds, 0.57% hits. inhibition, %, or IC50 in µM where a hit was titrated;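 active = above the screen mean plus three standard deviations and confirmed in dose response; inconclusive = results disagree or hit not tested in dose response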;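 note: Vif residues 1-94 fused to GST binding biotinylated APOBEC3G peptide 110-148; 0% = full assay without inhibitor and 100% = GST in place of GST-Vif; retest series ran down from 100 µM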
LANA-H2A inh: blockers of LANA interaction with H2A/H2B – biochemical, FP readout, HTS, primary screen; inhibition, % (no concentration beside the values); Protein LANA1 (Human herpesvirus 8 type P (isolate GK18)), Q9QR71; cell-free LANA-H2A/H2B peptide, fluorescence polarization; 320,000 compounds, 0.6% hits; in the data active = inhibition mostly above about 10%, no sharp cut-off; inactive = mostly below about 6.7%;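 note: stock transfer was 7.5 nL into about 10 µL; 0% = median of vehicle wells and 100% = median of positive control wells; one replicate is shown; the record names a cut of 25% in any replicate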
T cruzi repl: inhibitors of intracellular T. cruzi growth, primary screen, luminescence, NIH3T3 host cells; inhibition, % (concentration not given with the values); T. cruzi beta-gal in NIH3T3, 90 h; 300,000 compounds, 1.4% hits; AID 1885, 2009;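 active = mean inhibition across valid replicates above about 55%, limit read from the data; inconclusive = mean below that limit but half or more replicates reach it; inactive = mean below it, under half of replicates reach it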;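 note: signal also drops with host cell toxicity which is not excluded here; 0% = plate median of DMSO wells and 100% = zero luminescence signal; higher percent means less beta-gal luminescence so fewer parasites; stock transfer was 50 nL into about 50 µL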
RanGTP-Imp inh: inhibitors of RanGTP-importin-beta interaction, primary screen, biochemical, FRET, CFP-Ran, YFP-importin-beta, homogeneous | Ran GTPase (GTP-bound) - importin-beta complex | cell-free CFP-Ran/YFP-importin-beta FRET ratio | inhibition, % (no concentration beside the values) | 300,000 compounds, 1.1% hits;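 active = most replicates above 15%; inconclusive = exactly half above 15%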;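 note: 0% = DMSO wells and 100% = Ran loaded with GDP instead of GTP; wells of about 40 µL received 100 nL stock; the first replicate is given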
Calb FLC: C. albicans growth inhibition with fluconazole, primary screen, CaCi-2 strain, Alamar Blue fluorescence; C. albicans CaCi-2 (fluconazole-resistant clinical isolate) + fluconazole, 48 h; growth inhibition, % (concentration not given with the values); 300,000 compounds, 0.57% hits; AID 1979, 2009;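 active = most replicates above 75%; inconclusive = exactly half above 75%; inactive = most below 75%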;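 note: all wells also contain fluconazole at 8 µg/ml as a sub-toxic cotreatment; 0% = median of DMSO wells and 100% = median of geldanamycin control wells; wells of about 8 µL received 7.5 nL stock; the first replicate is given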
Beta cell apopt: inhibitors of cytokine-induced beta cell apoptosis, primary screen, luminescence | INS-1E cytokine-induced death, ATP luminescence, 48 h; percent of positive-control rescue, neutral wells zero | protection from apoptosis, % (no concentration beside the values) | 300,000 compounds, 0.8% hits | AID 435005, 2010;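 active = all replicates at 75% or more, or half of them and the mean; inconclusive = half reach 75% but not the mean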;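 note: 0% = cytokine-treated negative control wells and 100% = positive control rescue; higher means more ATP so stronger rescue from cytokine killing; wells of about 40 µL received 100 nL stock; the first replicate is given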
* marks the source's active call; other numbers are inactive results; ? = inconclusive; · = not tested or not shown.

SMILES	Bfl-1 A1 inh	MLL AF4-AF9 inh	Vif A3G	LANA-H2A inh	T cruzi repl	RanGTP-Imp inh	Calb FLC	Beta cell apopt
CCOc1ccc(-c2cccc(NC(=O)c3ccc(Br)o3)c2)nn1	0.5	-1.1	-3%	-5.9	-10	2.2	14	1
COc1cc(-c2nc(N)n[nH]2)cc(OC)c1OC	-0.1	·	-8%	-1.2	1	6.6	-5	2
COc1ccc(CCNc2ccc(C(CC(N)=O)NC(=O)c3ccc(Br)cc3)cc2[N+](=O)[O-])cc1 (stereo not drawn)	1.9	0.6	·	-3.0	-18	4.3	-7	?
Cc1ccc(CN2CCNC(=O)C2CC(=O)N2CCN(c3ncccn3)CC2)o1 (stereo not drawn)	0.1	-0.2	-2%	-75	-6	-0.8	-5	-6
CCOc1ccc2nc(N(CCCN(C)C)C(=O)c3ccc(S(=O)(=O)N4CCc5ccccc5C4)cc3)sc2c1	1.1	-2.4	·	0.0	48	3.2	5	7
COc1ccc(C(CC(=O)Nc2ncccc2C)N2Cc3ccccc3C2=O)cc1 (stereo not drawn)	-0.1	-0.3	1%	-3.2	-4	-4.0	8	·
CN(C)S(=O)(=O)c1cccc(NC(=O)COC(=O)/C=C/c2ccc([N+](=O)[O-])cc2)c1	0.2	5.6	4%	-4.9	-6	3.0	-14	4
Cc1cc(S(=O)(=O)Nc2cccc(Cl)c2)c(C)s1	-1.0	-0.7	4%	-0.9	-1	-0.6	-53	-1
COc1ccc(C)cc1NC(=O)c1ccc([N+](=O)[O-])cc1[N+](=O)[O-]	0.1	-0.5	·	-1.2	71*	4.6	9	5
Nc1ncc(Br)cc1S(=O)(=O)NCCc1ccccc1	-0.9	-5.9	·	-2.8	9	0.3	-9	6
CN1CCN(c2nc3c(c(=O)n(C)c(=O)n3C)n2CCSc2nnnn2-c2ccccc2)CC1	1.5	1.8	-2%	1.3	-9	-0.1	-15	-5
CNC(=S)N1CCC(c2nc3ccccc3s2)CC1	-0.4	0.4	1%	-3.3	-9	8.0	?	-5
CC1(C)CC(=O)C(C(c2cc([N+](=O)[O-])ccc2Cl)C2C(=O)CC(C)(C)CC2=O)C(=O)C1	-0.5	-1.2	·	-0.6	-12	3.0	6	3
CC(C)(C)c1ccc(/C=N/Nc2cccc(C(=O)O)c2)cc1	-8.1	-0.2	?	1.4	-5	0.9	2	-4
CCC(=O)Nc1cccc(C(=O)Nc2nccs2)c1	0.1	0.3	·	-1.5	-5	6.4	9	-1
O=C(COc1ccc(Br)cc1Br)NN1C(=O)c2ccccc2C1=O	2.4	2.3	·	1.4	-10	2.1	8	·
O=[N+]([O-])C(=C1Nc2ccccc2N1)/C(Cl)=C(/Cl)Br	-0.6	·	?	2.5	-40	5.8	-1	-11
CCCN(CCC)CCCNC(=O)Cn1cnc2sc(C)c(S(=O)(=O)N3CCCCC3)c2c1=O	-0.2	1.3	·	5.6	-5	1.1	13	-4
O=C(CSc1nnnn1C1CCCCC1)Nc1ccc2c(c1)OCO2	0.3	·	3%	6.0	-7	1.0	-1	·
CCCCCCCNC(=O)C1(CC2CC(c3ccc(Cl)cc3)=NO2)CCN(C(=O)C2(C)CC2)CC1 (stereo not drawn)	-0.3	·	·	1.3	6	2.5	-5	3
COc1c(C=O)c(CCN(C)C(=O)c2ccc(F)cc2)cc2c1OCO2	0.5	-2.5	8%	-5.8	1	2.1	21	-8
Cc1ccc(S(=O)(=O)N2CCOCC2)cc1C(=O)NC1CCCCC1	0.1	·	1%	-0.8	-15	-0.2	17	-3
Cc1ccc(C)n1-c1ccc(C(=O)NCC2CCCO2)cc1 (stereo not drawn)	1.4	·	0%	-4.7	·	·	·	-19
COc1ccc(-c2nc(SC(C)C(=O)c3c(N)n(C)c(=O)n(C)c3=O)n[nH]2)cc1 (stereo not drawn)	2.0	1.7	7%	0.6	·	·	·	-5
COc1cc(C(=O)N2CCN(c3ccccc3Cl)CC2)ccc1OCC(=O)N1CCOCC1	0.4	-2.3	-15%	-0.1	·	·	·	-1
(more compounds)
SMILES	Bfl-1 A1 inh	MLL AF4-AF9 inh	Vif A3G	LANA-H2A inh	T cruzi repl	RanGTP-Imp inh	Calb FLC	Beta cell apopt
Cc1sc(N/N=C/c2cccnc2)nc1-c1ccccc1	-2.1	·	-9%	0.6	28	0.8	6	3
Cc1ccc(-c2cn(-c3ccccc3)c(SCC(=O)NC3CCS(=O)(=O)C3)n2)cc1C (stereo not drawn)	-0.2	13	·	0.8	-3	0.8	-2	-5
Fc1ccc(-n2c(Cc3cccs3)n[nH]c2=S)cc1Cl	-0.9	5.3	12%	-0.8	1	3.8	3	0
CCOc1ccc(NC(=O)CSc2nc3ccccc3c(=O)n2Cc2cccs2)cc1	-0.3	·	·	-4.2	0	0.6	-7	17
Cc1ccnc(NS(=O)(=O)c2ccc(NC(=O)c3ccc(Br)o3)cc2)n1	-0.1	-1.5	1%	-2.2	-4	·	-15	-2
CC(=O)c1cccc(NC(=O)CN2C(=O)COc3ccc(Cl)cc32)c1	0.0	-1.4	19%	2.8	4	-1.2	5	3
CCC(C(=O)NCc1ccco1)n1nc(-c2ccc(OC)cc2)ccc1=O (stereo not drawn)	-0.5	·	9%	-0.5	-9	3.2	-4	-7
CC(C)(C)c1ccc(-c2cc(N)n[nH]2)cc1	-0.1	3.3	?	-5.8	14	-1.7	3	-6
CCOP(=O)(OCC)C(C)(C)NC(=O)c1cc([N+](=O)[O-])cc([N+](=O)[O-])c1	0.5	·	4%	-1.2	52	-3.7	4	-4
CCC(=O)OCC(=O)N=c1sccn1Cc1ccccc1Cl	0.5	-0.9	·	4.8	-1	?	-2	1
CCCOC(=O)C1=C(C)N(C)C(=O)NC1c1cc2c(cc1[N+](=O)[O-])OCO2 (stereo not drawn)	-0.6	-1.3	-2%	-3.5	4	-1.3	-1	5
N#Cc1nc(-c2ccco2)oc1N1CCC(Cc2ccccc2)CC1	-0.1	·	16%	-3.7	14	3.2	?	1
C1CSC2(N1)C1CC3CC(C1)CC2C3 (stereo not drawn)	-0.6	·	2%	2.9	-6	4.0	-4	1
O=C(CN1C(=O)CSc2ccccc21)N/N=C/c1ccco1	0.0	-0.7	-12%	-1.0	6	8.5	11	-7
O=C(Nc1cc(C(F)(F)F)ccc1N1CCCC1)C1=COCCO1	1.2	-8.1	-2%	1.3	0	4.2	5	-2
CCC(C(=O)NCCc1ccc(C)cc1)n1nc(C)c2c(C)n(-c3ccccc3)nc2c1=O (stereo not drawn)	-0.4	1.1	·	10.0	17	-1.6	5	-5
C/C(=N\NC(=O)c1ccccc1)c1nc2ccccc2n1C	0.7	0.7	13%	-4.7	-55	-0.5	8	23
CC(C)CCNC(=O)CCC(=O)NNc1nc2ccccc2c2nc(-c3ccccc3)nn12	-0.2	·	·	1.8	-8	9.4	1	11
Clc1ccc(OCc2nnc(SCc3nc4ccccc4[nH]3)n2Cc2ccco2)cc1	-0.2	·	7%	-24	23	-3.1	-9	25
CCOc1ccc(C2/C(=C(/O)c3ccc(OC)cc3)C(=O)C(=O)N2c2cc(C)on2)cc1OC (stereo not drawn)	-0.3	·	-3%	4.8	3	-2.4	-1	-9
Fc1ccc(C2CC(c3ccccc3)n3ncnc3N2)cc1 (stereo not drawn)	-1.3	·	6%	6.6	-7	-0.3	1	-5
CCn1cc(C(=O)NCc2ccco2)c(=O)c2cc(F)c(N3CCN(C(=O)c4ccco4)CC3)cc21	-1.4	·	-4%	-9.8	-4	0.2	-1	-1
Cn1c(SCC(=O)NC(=O)NCc2ccco2)nnc1-c1ccccc1	-0.2	·	8%	1.6	·	0.4	-10	0
COc1ccc(NC(=O)Nc2ccccc2F)cc1	-7.8	-5.5	-2%	-2.9	-23	-1.9	-27	20
Oc1ccc(CCNc2ncnc3ccc(Cl)cc23)cc1	-1.3	-5.4	·	-11	-14	0.0	·	107*
More records follow.
SMILES	Bfl-1 A1 inh	MLL AF4-AF9 inh	Vif A3G	LANA-H2A inh	T cruzi repl	RanGTP-Imp inh	Calb FLC	Beta cell apopt
Cc1cccc(NC(=S)NC(=O)c2oc3ccccc3c2C)n1	0.4	-0.9	·	-2.7	-10	-2.7	-6	7
COc1ccc2c(c1)O[C@@H](c1cccc(C(F)(F)F)c1)[C@H](OC(=O)N[C@H]1CCCc3ccccc31)C2=O	0.2	·	·	-1.7	28	1.0	13	13
O=C(COC(=O)CCc1ccc(S(=O)(=O)N2CCOCC2)cc1)Nc1ccc(Cl)cn1	0.3	·	25%	-4.3	-2	-0.7	-4	-6
O=S(=O)(Nc1ccc(S(=O)(=O)Nc2nccs2)cc1)c1ccc2c(c1)OCCO2	-0.1	·	18%	-5.7	-5	?	?	-4
Brc1ccccc1C1CC(c2ccccc2)=Nc2ccccc2N1 (stereo not drawn)	-0.5	8.7	7%	-2.2	-9	3.2	-8	2
O=C(CN1CCC(N2CCCCC2)CC1)N1CCCc2ccccc21	2.4	·	-9%	-2.8	-1	7.8	0	-1
COc1cccc(C2=NN(C(=O)c3ccccc3)C(O)(C(F)(F)F)C2)c1 (stereo not drawn)	0.1	·	3%	1.6	3	3.7	60	-1
Cc1ccc(C)c(N2CCN(C(=O)c3cc4sccc4n3C)CC2)c1	1.0	·	?	-2.4	33	-1.3	20	-1
CCc1noc(C)c1C(=O)Nc1nnc(C2CCCCC2)s1	0.7	·	1%	-3.3	9	2.1	4	6
CC(C)Cc1cc(CNC(=O)C2CCC(=O)N(Cc3cccc(C(F)(F)F)c3)C2)on1 (stereo not drawn)	-0.4	0.0	·	1.8	7	-3.3	7	-3
Cc1cc(NC(=O)C2CC(c3ccccc3Cl)=NO2)no1 (stereo not drawn)	0.3	·	-3%	-4.1	-9	-1.3	-3	-5
Cc1ccc(-n2c(CSc3nc(C)cc(C)n3)nnc2SCC(=O)Nc2nccs2)cc1	-0.7	-27	-16%	2.2	-11	9.7	1	-3
O=C(c1cc2ccccc2o1)N1CCCC1	-1.1	-0.5	·	2.2	-9	0.9	0	-4
Cc1ccc(C)c(N(C(=O)c2snc(C(N)=O)c2N)C(C(=O)NCC2CCCO2)c2cccs2)c1 (stereo not drawn)	-0.8	4.5	·	1.9	24	-1.9	18	6
C=CCn1c(CCc2ccccc2)nnc1SCC(N)=O	-0.2	-11	·	2.1	-8	1.4	-2	1
CCCNC(=O)COc1coc(CN2CCN(c3cccc(Cl)c3)CC2)cc1=O	-0.6	-3.5	·	0.3	-34	-4.9	0	·
Cn1c(=O)c2c(O)cc(=O)n(-c3ccccc3)c2n(C)c1=O	0.2	·	4%	1.7	-2	-1.8	·	-3
Cc1cc2ncn(C(=O)c3ccc4c(c3)OCO4)c2cc1C	-0.3	·	-6%	-0.4	·	1.5	-1	-6
